BJeLR viability – kills HRASV12-expressing BJeLR cells; inhibition, % (test concentration not listed); AID 1554; BJeLR (HRASV12) viability, CellTiter-Glo ATP luminescence, 48 h; reference of the scale not given here; hit rate 0.17% among 300,000;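 active = replicate mean above 50%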;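 also: 50 nL library stock added to about 25 µL; numbers are from one replicate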
ugtP null kill – kills S. aureus RN4220 lacking UgtP | hit rate 0.54% among 330,000 | growth inhibition, % (test concentration not listed) | S. aureus RN4220 ugtP deletion, OD600 growth, 16 h; some inactives read as strong as hits;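 active = z-score under -3 and OD600 up to 0.15 on both plates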;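 also: plate controls were untreated wells for no effect and antibiotic for full effect; wells of about 80 µL received 100 nL stock; the first replicate is given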
Bead autofluor – compound fluorescence in toxin protease inhibitor counterscreen | compound autofluorescence counterscreen, microsphere flow cytometry; active compounds read high | fluorescence intensity (no concentration beside the values) | hit rate 3.1% among 360,000 | AID 624483;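 active = at least 3 SD above the mean of all compounds, about 16000 in these data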;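 also: 100 nL of 1 mM stock went into each well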
PrP UTR inh – inhibition of PrP 5' UTR reporter expression | cell-based PrP 5' UTR mRNA reporter, plate reader | hit rate 0.35% among 340,000 | AID 488862 | inhibition, % (concentration not given with the values);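 active = every replicate at 50% or more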;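 also: 0 = median of the neutral control wells; tested in H4 reporter cells; numbers are from one replicate; inactives centre near -14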
Mtb hypoxia rep – Mtb hypoxia fluorescent reporter inhibition. AID 1159583. hit rate 0.1% among 300,000. M. tuberculosis hypoxia-regulated fluorescent reporter, fluorescence. fluorescence inhibition, % (no concentration beside the values);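 active = 35 to 45% if threefold the growth effect, above 45% if 1.5-fold the growth effect; inactive = the rest, general growth blockers included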;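 also: wells of about 50 µL received 100 nL stock; 0% = vehicle wells and 100% = reference inhibitor wells; whole bacteria with a GFP reporter of the hypoxia response; strong numbers were not always called active; many hits fall short of the cut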
RN4220 kill – kills Staphylococcus aureus RN4220; S. aureus RN4220 growth, OD600, 16 h; inhibition, % (test concentration not listed); hit rate 0.33% among 330,000;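 active = z-score of -3 or lower and OD600 up to 0.18 on both plates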;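 also: plate controls were untreated cells for no effect and reference antibiotic for full effect; stock transfer was 100 nL into about 80 µL; one replicate is shown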
Mtb hypoxia rep growth – recorded beside Mtb hypoxia rep, whose call it bears; growth inhibition, %; measured here: M. tuberculosis growth (absorbance);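 0% = vehicle and 100% = reference antibiotic; read after six days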
The depositor's hits bear a star; · = no result given.

#1 CC1CCCN(C(=O)CN2C(=O)NC3(CCCCC3C)C2=O)C1 (stereo not given)
#2 CCOc1cc(N2CCOCC2)c(OCC)cc1NS(=O)(=O)c1ccc(Cl)s1
#3 N/C(COc1ccccc1)=N\NS(=O)(=O)c1ccccc1
#4 Cc1c(C(=O)NCCN2CCOCC2)oc2ccc(Br)cc12
#5 CN(c1ccc(OCC(=O)N2CCC(C(N)=O)CC2)cc1)S(=O)(=O)c1cccs1
#6 CC[C@@]1(C(=O)OC)N[C@H](CN(C)S(=O)(=O)c2ccc(C(C)(C)C)cc2)[C@@H]2C(=O)N(C)C(=O)[C@@H]21
#7 COc1ccc(C(=O)N2CCCC(Nc3ccc(F)cc3)C2)c(OC)c1 (stereo not given)
#8 Cc1ccccc1-n1c(=S)[nH]c2nc3c(cc2c1=O)COC(C)(C)C3
#9 Cc1ccccc1NNC(N)=S
#10 Cc1ccc(-c2c(C(=O)NN=Cc3ccsc3)nnn2-c2nonc2N)cc1

entry no.	1	2	3	4	5	6	7	8	9	10
BJeLR viability	·	26	9	3	6	·	2	6	-9	·
RN4220 kill	2.0	16	2.6	5.5	2.3	3.3	1.5	-5.3	6.3	4.1
Mtb hypoxia rep growth	-2	·	7	13	5	10	5	2	5	-6
Bead autofluor	5449	3233	9670	4575	21812*	3569	6487	4496	4269	·
Mtb hypoxia rep	11	·	7	5	7	5	-1	-31	19	-2
PrP UTR inh	-4	-16	-18	-5	-25	-6	-2	-14	-3	·
ugtP null kill	5	-2	0	12	-4	-1	5	-11	5	3

#11 Cc1ccc(-n2cc(CNCCCN3CCCC3=O)c(-c3ccc(F)cc3)n2)cc1
#12 Cc1ccc(-c2cc(O)cc3sc(=O)oc23)cc1C
#13 C=CCNC(=O)c1ccc(-c2nc3ccccc3nc2-c2ccccc2)cc1
#14 CCOC(=O)CSc1nc(CC)nc2ccccc12
#15 CCN1C(=O)C2CCC3C(=NOC(C)c4cn(C(CO)Cc5ccccc5)nn4)CC(O)C(O)C3C2C1=O (stereo not given)
#16 O=C(NC1CCCC1)C(c1ccccn1)N(C(=O)c1csnn1)C1CCCCC1 (stereo not given)
#17 Cc1ccc(O)c(CC(C)C)n1
#18 CCCCCCn1cc(C(=O)O)c(=O)c2cc(F)c(N3CCCCC3)cc21
#19 O=C1CCCN1S(=O)(=O)c1ccccc1
#20 CC1CCC(NC(=O)C(NC(=O)c2ccccc2)C(C)C)CC1 (stereo not given)

entry no.	11	12	13	14	15	16	17	18	19	20
BJeLR viability	-4	11	-10	-1	·	-4	-3	-12	-8	-2
RN4220 kill	1.2	-6.3	-1.5	6.1	7.9	7.1	7.4	-3.5	·	2.2
Mtb hypoxia rep growth	14	15	1	5	-7	5	3	13	·	6
Bead autofluor	2441	5038	6284	7715	·	3284	2811	·	4174	3014
Mtb hypoxia rep	17	-8	17	10	-3	-3	-4	9	·	5
PrP UTR inh	-14	-29	-15	-54	·	-13	-23	-16	-72	-7
ugtP null kill	3	13	11	4	2	11	-8	5	·	9

#21 CCOC(=O)c1[nH]c(C)c(/C(O)=C2\C(=O)C(=O)N(CCN3CCOCC3)C2c2ccco2)c1C (stereo not given)
#22 Cc1cccc(N(CC(=O)O)CC(=O)O)c1
#23 CCOC(=O)c1cnc2c(Cl)c(Cl)ccc2c1N1CCN(C)CC1
#24 O=c1n(-c2ccc(Br)cc2)cnn1-c1ncccc1[N+](=O)[O-]
#25 Cc1ccc(NC(=O)N2CCC(O)(c3ccc(Cl)cc3)CC2)cc1
#26 CC(=O)N(Cc1cc2ccccc2[nH]c1=O)c1ccc(C)cc1
#27 C/C(=N\NC(=O)CN(c1ccc(Oc2ccccc2)cc1)S(C)(=O)=O)C(C)(C)C
#28 C[C@H](CO)N1C[C@H](C)[C@@H](CN(C)C(=O)NC2CCCCC2)Oc2c(NS(=O)(=O)c3ccc(F)cc3)cccc2C1=O
#29 O=C(O)[C@@H]1C[C@H]1[C@@H](NP(=O)(c1ccccc1)c1ccccc1)c1ccccc1
#30 CC1(C)OC(=O)C=C[C@]2(C)[C@H]3CC[C@@]4(C)[C@H](c5ccoc5)OC(=O)[C@H]5O[C@]54[C@]3(C)C(=O)C[C@@H]12

entry no.	21	22	23	24	25	26	27	28	29	30
BJeLR viability	3	12	15	1	4	4	-5	·	0	·
RN4220 kill	2.7	6.7	-0.7	4.9	2.8	3.5	·	-3.4	·	-9.6
Mtb hypoxia rep growth	5	7	3	-4	2	-2	·	4	·	8
Bead autofluor	4516	2723	4956	4008	10222	3439	2732	4653	4188	3904
Mtb hypoxia rep	3	6	7	6	-4	4	·	-2	·	8
PrP UTR inh	-16	-12	2	-61	-16	-13	-19	-10	-11	-3
ugtP null kill	7	-4	-4	5	-8	1	·	-2	·	-2

#31 CCOC(=O)C1CCCN(c2c(N3CCN(c4cccc(Cl)c4)CC3)c(=O)c2=O)C1 (stereo not given)
#32 CCc1ccc(CNc2ccc3c(c2)ncn3C)cc1
#33 O=C(O)c1cc(N/N=C/c2ccc(-c3ccccc3)cc2)ccc1Cl
#34 CCn1c(SCC(=O)Nc2nccs2)nnc1-c1ccccc1
#35 CC(C)OC(=O)c1ccc(NC(=O)C2C3CC4OC(=O)C2C4C3)cc1 (stereo not given)
#36 CCOC(=O)CC(=O)CSc1nc2ccc(OC)cc2cc1C
#37 O=[N+]([O-])c1ccc(-[n+]2c(-c3ccccc3)cc(-c3ccccc3)cc2-c2ccccc2)cc1
#38 C=C(C)Cn1c(SCC(=O)O)nc2c1c(=O)[nH]c(=O)n2C
#39 CN(Cc1cnccn1)Cc1nc(Cc2ccccc2Cl)no1
#40 Cc1ccc(C(=O)OCC(=O)N2CC(C)CC(C)C2)cc1S(=O)(=O)N1CCCCC1 (stereo not given)

entry no.	31	32	33	34	35	36	37	38	39	40
BJeLR viability	14	17	-9	-9	·	0	-1	-12	10	-1
RN4220 kill	1.2	2.8	·	7.0	-1.3	3.0	-0.8	16	6.5	2.2
Mtb hypoxia rep growth	3	4	·	-2	·	-13	14	-5	2	10
Bead autofluor	4383	21662*	3390	5777	2210	3561	3632	5777	4319	5039
Mtb hypoxia rep	-10	-3	·	6	·	-8	-5	-7	1	10
PrP UTR inh	-15	-139	-87	-4	-63	-36	-18	-9	-9	-3
ugtP null kill	-17	8	·	10	2	-3	-5	7	3	6

#41 CC(C)Oc1ccc(CNC(=O)CCC(=O)N2CC(C)Sc3ccccc32)cc1 (stereo not given)
#42 CC(C(O)c1ccccc1)N(C)C(=O)C(N)Cc1ccccc1 (stereo not given)
#43 c1ccc2c(c1)Cn1c-2nc2ccccc21
#44 Cc1cc2cc(CCNC(=O)c3ccc(C)c([N+](=O)[O-])c3)c(=O)[nH]c2cc1C
#45 COc1ccc(S(=O)(=O)N2c3cc(C)ccc3OCC2C(C)(C)C)cc1 (stereo not given)
#46 CCOC(=O)C1(CCc2ccccc2)CCN(C(=O)c2cccc(C)n2)CC1
#47 CC1CCCC(N2CCN(C(=O)c3ccccc3F)CC2)C1 (stereo not given)
#48 COC(=O)C1=C(C)N(Cc2ccccc2)C(=NCCCCO)N[C@H]1CCc1ccccc1
#49 CNC(=S)N(CCc1c(C)[nH]c2ccc(Cl)cc12)Cc1cc(OC)c(OC)c(OC)c1
#50 Cc1[nH]c2ccccc2c1C(=O)C(=O)N1CCN(c2ccccc2)CC1

entry no.	41	42	43	44	45	46	47	48	49	50
BJeLR viability	-5	·	11	-5	24	1	-2	3	0	5
RN4220 kill	-1.2	4.3	-0.4	16	3.6	4.1	1.3	·	14	9.4
Mtb hypoxia rep growth	·	-2	·	6	5	7	17	·	3	8
Bead autofluor	4175	·	2969	2558	6488	2136	3001	4313	6281	6044
Mtb hypoxia rep	·	-1	·	1	5	3	13	·	-2	2
PrP UTR inh	-7	·	-102	-35	-32	-26	-39	-16	0	-5
ugtP null kill	6	4	5	1	0	-1	12	·	-16	-11

#51 O=C(O)C1=NOC(CNC(=O)c2ccccc2Cl)C1 (stereo not given)
#52 N#CC1=C(N)SC(N)=C(C#N)C1CCc1ccccc1
#53 Cc1cc2n(n1)SC(Nc1ccccc1)N2 (stereo not given)
#54 O=S(=O)(Nc1ncccn1)c1ccc(NC(=S)Nc2ccccc2Cl)cc1
#55 Cc1cc(C)c2c(N)c(C(=O)c3ccccc3)sc2n1
#56 Cc1cc2nncn2c2ccccc12
#57 CC1(C)OC(=O)N(c2ccccc2)C12C=Cc1cc(Br)ccc1O2 (stereo not given)
#58 O=C(O)c1ccccc1Nc1ccccc1
#59 COc1ccccc1NC(=O)CSc1nc(N)c(-c2ccccc2)c(=O)[nH]1
#60 CC12CN3CC(C)(CN(C1)C3c1ccc(Cl)cc1)C2 (stereo not given)

entry no.	51	52	53	54	55	56	57	58	59	60
BJeLR viability	3	-7	4	3	-15	10	8	·	·	2
RN4220 kill	4.1	3.0	-5.7	·	-0.7	0.6	0.8	13	3.2	5.1
Mtb hypoxia rep growth	-1	4	10	·	4	3	3	0	-2	4
Bead autofluor	4522	3902	3289	3559	4488	2858	·	5960	4690	3845
Mtb hypoxia rep	10	1	3	·	-11	6	-3	6	6	8
PrP UTR inh	-13	-4	-26	-2	·	-10	-21	-9	-6	-15
ugtP null kill	6	2	-8	·	-9	-1	62	-15	6	0

#61 CN(C)c1nc(NCc2ccccc2)nc(N/N=C/c2cccc(Br)c2)n1
#62 COc1ccc(/C(CC2(O)C(=O)Nc3ccccc32)=N\O)cc1 (stereo not given)
#63 COc1cc(NS(=O)(=O)c2ccc(NS(=O)(=O)c3ccc(NC(C)=O)cc3)cc2)nc(OC)n1
#64 Cc1ccnc(NC(=O)CCC2COc3ccccc3O2)c1 (stereo not given)
#65 COC(=O)c1ccc(C2/C(=C(/O)c3ccc4c(c3)CC(C)O4)C(=O)C(=O)N2CCN2CCOCC2)cc1 (stereo not given)
#66 COc1ccccc1C(c1nnnn1CC1CCCO1)N1CCN(c2ccccc2)CC1 (stereo not given)
#67 CCN(CC)C(=O)Cn1c(=O)n(CCCCCC(=O)Nc2ccccc2)c(=O)c2sccc21

entry no.	61	62	63	64	65	66	67
BJeLR viability	-2	-1	0	1	2	1	8
RN4220 kill	·	·	-0.5	6.4	-3.8	3.7	2.7
Mtb hypoxia rep growth	·	·	8	·	1	-5	-3
Bead autofluor	3422	3576	3803	3622	6001	2636	2480
Mtb hypoxia rep	·	·	7	·	-7	7	7
PrP UTR inh	-18	-15	-20	2	19	-13	0
ugtP null kill	·	·	5	-4	-7	11	7
